Six1-Eya2 inh = qHTS Assay for Inhibitors of the Six1/Eya2 Interaction | actives 0.56% (n = 360,000) | AlphaScreen GST-Six1/His-Eya2 binding, biochemical; active compounds read low; control for the full effect not named in the record | Homeobox protein SIX1 (Homo sapiens) + Protein phosphatase EYA2 (Homo sapiens), … | activity change, % (no concentration beside the values); in the data active = activity change below about -65%; inconclusive = about -30% to -65%; inactive = above about -30%; further: on the % scale 0 is the no-effect control and ±100 the full control effect
Target sequence (O00167 whole entry, looked up): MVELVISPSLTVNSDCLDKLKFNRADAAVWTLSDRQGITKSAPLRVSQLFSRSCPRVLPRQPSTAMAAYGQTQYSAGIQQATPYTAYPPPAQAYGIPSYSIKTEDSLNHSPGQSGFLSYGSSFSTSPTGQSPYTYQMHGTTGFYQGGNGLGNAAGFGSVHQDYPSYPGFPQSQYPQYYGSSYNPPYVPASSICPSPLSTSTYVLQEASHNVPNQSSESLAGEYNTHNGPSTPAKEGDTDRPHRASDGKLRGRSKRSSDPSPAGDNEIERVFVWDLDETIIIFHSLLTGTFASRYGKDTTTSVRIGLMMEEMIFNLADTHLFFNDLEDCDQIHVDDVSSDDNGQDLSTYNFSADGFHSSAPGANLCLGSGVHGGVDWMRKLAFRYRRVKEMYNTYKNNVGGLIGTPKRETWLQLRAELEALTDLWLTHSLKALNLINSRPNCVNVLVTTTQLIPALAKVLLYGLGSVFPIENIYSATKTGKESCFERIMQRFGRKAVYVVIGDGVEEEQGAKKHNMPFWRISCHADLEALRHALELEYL
Target sequence (Q15475 whole entry, looked up): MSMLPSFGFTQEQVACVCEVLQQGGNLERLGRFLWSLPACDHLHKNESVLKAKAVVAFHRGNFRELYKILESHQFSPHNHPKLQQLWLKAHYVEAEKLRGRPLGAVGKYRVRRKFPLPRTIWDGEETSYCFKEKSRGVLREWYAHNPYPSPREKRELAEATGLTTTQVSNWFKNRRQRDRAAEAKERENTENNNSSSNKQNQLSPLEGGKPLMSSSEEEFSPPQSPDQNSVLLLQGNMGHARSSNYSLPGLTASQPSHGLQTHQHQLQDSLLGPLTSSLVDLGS
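Homogeneous AlphaScreen proximity assay pairing GST-Six1 with His-tagged Eya2 (added as 5X mix: 250 nM and 500 nM) in 50 mM Tris pH 8.0, 300 mM NaCl, 1 mM TCEP. Glutathione donor and nickel acceptor beads; 1 h, 37 °C, dark.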
TRPML1 agonist = qHTS for Agonists of the Human Mucolipin Transient Receptor Potential 1 (TRPML1); TRPML1-expressing cells, Ca2+ dye fluorescence, FDSS; host cell line not named in the record; reference of the full effect not given here; Mucolipin-1 (Homo sapiens), Q9GZU1; activation, % (test concentration not listed); actives 0.12% (n = 410,000); in the data active = activation above about 50%; inconclusive = about 30% to 50%; inactive = below about 30%; further: 0% is about no effect; the text of the record puts the active cut at 80%
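In this qHTS format, compounds were pin-transferred onto Ca8-dye-loaded TRPML1-DL cells induced with Tet overnight, and intracellular Ca2+ fluorescence was recorded kinetically for 110 s after a 10 s baseline. A subsequent 4uM final 54-4 (EC80) addition followed by a second 110 s read served as the antagonist phase.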
PINK1 expr mod = A Quantitative High throughput Screen to Identify Chemical Modulators of PINK1 Expression; PINK1 immunofluorescence, high-content cytometry, 24 h; Potency, µM (titrated, usually from 76.6 µM), without a hit: top-dose activation (PINK1 increase), usual class: activators; actives 0.2% (n = 410,000); AID 624263, 2012; active = well fitted activation curve with a large enough effect; inconclusive = small, poorly fitted or top-dose-only effect; inactive = flat fitted curve, though single readings scatter; cell line not stated here;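 further: potency means the concentration at half of the fitted maximal effect; % of control where 0% means no effect; nearly all actives have a fitted effect of over 65% in size; a mitochondrial uncoupler was the plate control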
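Fluorescence from anti-PINK1 antibody, together with nuclear and cell stains, was scanned on a laser-scanning cytometer. Before staining, stable-line cells were incubated 24 hours with compounds at 5 concentrations; primary antibody 12 h at 10 degrees C.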
D2 ag = Beta-Arrestin HTS for Positive Allosteric Modulators of the Human D2 Dopamine Receptor: Agonists | DiscoveRx PathHunter D2 beta-arrestin, luminescence, 90 min; 100% = 57 uM dopamine signal | AID 624465, 2012 | activation, % (test concentration not listed) | D(2) dopamine receptor (Homo sapiens), P14416 | actives 0.084% (n = 360,000); in the data active = activation above about 40%; inconclusive = about 15% to 40%; inactive = below about 15%; further: compound concentration not given in the record; the text of the record calls up to 30% inactive
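Agonist mode: compounds alone added to overnight-plated D2 PathHunter cells for 90 min at 37 C, with 57 uM final dopamine (EC100) defining full response. Beta-arrestin recruitment detected by chemiluminescent reagent, read after 1 h at ambient temperature.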
TRPML1 blocker = qHTS for Inhibitors of the Human Mucolipin Transient Receptor Potential 1 (TRPML1) | Mucolipin-1 (Homo sapiens), Q9GZU1 | TRPML1-inducible cells, Ca2+ dye fluorescence, FDSS; active compounds read low; inhibition of EC80 agonist-evoked calcium signal | activity change, negative = inhibition, % (test concentration not listed) | actives 0.02% (n = 390,000) | AID 624415, 2012; in the data active means activity change below about -50%; inconclusive means about -30% to -50%; inactive means above about -30%;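 further: stimulus is agonist 54-4 at its EC80 concentration; on the % scale 0 is the no-effect control and ±100 the full control effect; compound concentration not given in the record; the text of the record puts the active cut at -80%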
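Calcium fluorescence in TRPML1-DL cells induced overnight with Tet: a 110 s read after compound pin addition, then a 110 s antagonist read after challenge with 54-4 at 4 uM final (EC80).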
D2 potentiator = Beta-Arrestin HTS for Positive Allosteric Modulators of the Human D2 Dopamine Receptor: Potentiators | D(2) dopamine receptor (Homo sapiens), P14416 | DiscoveRx D2 beta-arrestin cells, luminescence, 90 min; 100% = 57 uM dopamine signal | potentiation, % (test concentration not listed) | actives 0.23% (n = 360,000) | AID 624464, 2012; active = potentiation of 50% or more; inconclusive = 30% to 50%; inactive = 30% or less;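 further: compound concentration not given in the record; tested on top of an EC20 dose of dopamine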
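D2 cells co-treated with compound plus 50 nM dopamine (EC20) for 90 min at 37 deg C to detect potentiation. Beta-arrestin recruitment was read as enzyme-fragment luminescence after 1 h at ambient temperature. Full response was set by 57 uM dopamine.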
The depositor's hits bear a star; ? = inconclusive; . = not tested or not shown; & = joins results of further samples; [ ] = dose if it differs, or a comment. Outcome played no part in choosing rows. Share with any hit: about 1%.

SMILES	Six1-Eya2 inh	TRPML1 agonist	PINK1 expr mod	D2 ag	TRPML1 blocker	D2 potentiator
CCCCn1c(N)c(N(CCOC)C(=O)COC(=O)COc2cc(C)c(Cl)cc2C(C)C)c(=O)[nH]c1=O	1	1.0	14%	-2.5	-7	-2
COc1ccc(CCNC(=S)N(C)C)cc1OC	0	0.2	-0.6%	0.8	3	-4
CCOC(=O)C1CCN(C(=O)COC(=O)c2cc([N+](=O)[O-])ccc2N2CCOCC2)CC1	0	-1.3	0.1%	-2.4	20	15
O=C(NC1CCS(=O)(=O)C1)c1cc(-c2ccccc2)nc2ccccc12 (stereo not given)	-2	0.1	-0.9%	-3.1	-3	-23
Cc1ccc(NC(=O)C2CCCN(c3ncnc4onc(C)c34)C2)c(Cl)c1 (stereo not given)	.	-0.6	1.0%	.	-1	.
CN1CCN(CCCNC(=O)c2cn(C3CCCCC3)c(=O)c3c2c2ccccc2n3C)CC1	-15	-0.9	1.1%	-5.6	-4	-22
O=C(Nc1ccc2c(c1)OCO2)NC1(C(F)(F)F)Oc2ccccc2O1	-10	-0.3	.	2.1	5	12
Cc1nn(-c2ccccc2)c(C)c1Cc1ccc(O)cc1	2	3.4	1.9%	14	8	5
COc1cc(C(=O)Nc2ccc(NC(=O)c3ccc(C(C)(C)C)cc3)cc2)cc(OC)c1OC	.	1.6	4.0%	.	30	.
COC(=O)CS(=O)(=O)c1ccc2c(c1)CC(=O)N2	3	-0.7	0.3%	8.6	-20	?
COC(=O)c1cc(Cn2nc(C(=O)O)c3ccccc3c2=O)oc1C	6	-0.4	5.5%	-1.5	2	-1
COc1ccccc1CNC(=O)c1ccc(Br)o1	2	-0.4	1.8%	-2.4	12	-2
COC(=O)C1=C(C)NC(=O)/C1=C\c1cccs1	4	-1.0	9.8%	-1.3	11	3
Cc1ccc(NC(=O)CSc2nnc(-c3ccncc3)n2N)cc1C	1	-0.4	-1.5%	-1.3	15	-3
COCCCNC(=S)N1CCN(C)CC1	1	-1.0	1.8%	-0.4	13	-2
O=C(CN1CCCCCCC1)N/N=C/c1ccccc1F	4	-0.5	-3.0%	-1.5	14	-12
Cc1ccc(S(=O)(=O)n2nc(-c3ccc(Cl)cc3)nc2NCc2ccccc2)cc1	.	1.5	0.4%	.	-5	.
Cc1ccc(N2C(SCC(=O)O)=NC(=Nc3cccc(C)c3)C23CCCC3)cc1	-1	0.1	0.0%	-2.3	-2	-5
CC(C)OC(=O)Cn1nnc2c(cnn2-c2ccccc2)c1=O	11	1.0	0.9%	-2.8	2	-10
O=C(NCCc1ccccc1)C1CCN(S(=O)(=O)N2CCCC2)CC1	3	1.8	.	-3.6	-4	0
COc1ccc(-c2oc(=O)c3cc(OC)c(OC)cc3c2/C=C/c2cccc([N+](=O)[O-])c2)cc1	3	-0.3	-1.2%	-0.1	2	-6
CC(=O)c1ccc(OCc2nnn(CC(=O)NS(=O)(=O)Cc3ccccc3)c2-c2ccccc2)cc1	-10	-0.7	-0.4%	-4.1	.	-7
CCOc1ccccc1CN1CCN(Cc2ccc3cc(F)ccc3n2)CC1CCO (stereo not given)	-1	1.4	3.2%	-1.7	5	-2
Cn1c(CCN2CCCCC2)nc2cc(NC(=O)COc3ccc([N+](=O)[O-])cc3)ccc21	0	-0.5	0.6%	-0.6	-9	-28
CN(C)S(=O)(=O)c1cccc(NC(=O)COC(=O)CNC(=O)c2ccccc2F)c1	4	-0.9	0.3%	-4.8	-6	-12
O=C(NCc1cccnc1)c1cccc2c1C(=O)N(C1CCCCC1)C2	-2	-1.2	0.6%	-0.2	-7	-14
Nc1nc(-c2cccs2)cs1	-5	0.2	-4.1%[38.3 µM]	-1.6	13	-8
CC(C)N(C(=O)[C@H]1C[C@H](CC(=O)NCCCN(C)C)C(=O)N2CCc3c([nH]c4cc(-c5ccco5)ccc34)[C@]12C)C(C)C	-14	0.5	-1.9%	2.1	-6	-6
CC(=O)c1ccc(N2CCN(S(=O)(=O)c3cc4[nH]c(=O)c(=O)[nH]c4cc3C)CC2)cc1	-3	0.7&2.6	10%&8.1%	2.3	-1&11	0
Cc1ccc(NC(=O)C(SCC(=O)O)c2ccccc2)cc1C (stereo not given)	-1	4.1	-3.4%	-2.1	8	-3

Three entries from above, ordered by the number in D2 ag, lowest first.
smiles	Six1-Eya2 inh	PINK1 expr mod	D2 ag	TRPML1 blocker	D2 potentiator
CC(=O)c1ccc(OCc2nnn(CC(=O)NS(=O)(=O)Cc3ccccc3)c2-c2ccccc2)cc1	-10	-0.4%	-4.1	.	-7
Nc1nc(-c2cccs2)cs1	-5	-4.1%[38.3 µM]	-1.6	13	-8
O=C(NCc1cccnc1)c1cccc2c1C(=O)N(C1CCCCC1)C2	-2	0.6%	-0.2	-7	-14

The list goes on:
SMILES	Six1-Eya2 inh	TRPML1 agonist	PINK1 expr mod	D2 ag	TRPML1 blocker	D2 potentiator
Cc1ncc([N+](=O)[O-])n1CC(=O)NCCc1ccccc1	4	3.2	-1.0%	-4.8	35	-5
CCc1sc(N(C(=O)Cc2ccccc2)c2ccc(F)cc2)nc1-c1ccccc1	3	0.1	3.5%	-1.1	-10	-6
Cc1ccc(CNC(=O)COc2ccc3c(c2)CCC3)cc1	5	-0.6	-0.1%	-5.1	-5	-21
Cc1ccc(CN2CCSc3ccc(C(=O)NCc4ccco4)cc32)cc1	-18	2.4	-1.0%	-3.8	6	-8
COc1ccccc1OCCOc1ccccc1/C=N/n1cnnc1	6	0.1	-2.2%	-5.2	-13	-10
CNc1snc(C)c1C(=O)OCC(=O)Nc1ccc(C)cc1F	1	0.2	2.1%	0.8	-6	10
CCCCCCCCCCCCOC1OC(CO)C(O)C(O)C1NC(C)=O (stereo not given)	-1	1.0	9.8%	-2.2	1	-19
COc1cccc(-c2csc(N3CCN(C(=S)Nc4ccccc4)CC3)n2)c1	-4	0.1	8.1%[38.3 µM]	1.2	12	-13
CC(C)[C@H](NC(=O)C1CCN(S(=O)(=O)c2ccc(F)cc2)CC1)C(=O)NCc1ccco1	-1	0.4	0.6%	4.4	17	-1
O=C(c1cc2ccccc2cc1O)N1CCCC1	2	1.5	-0.9%	-1.2	-26	-7
C[C@H](CO)N1C[C@H](C)[C@H](CN(C)C(=O)Cc2ccncc2)Oc2ncc(Br)cc2C1=O	4	0.0	1.2%	-7.4	-1	-1
CCOC(=O)c1cc(-c2ccccc2)n(CC(=O)NCc2ccccc2OC)c1C	.	2.2	12%	.	-22	.
CCC(C)NC(=O)c1cnn(-c2ccc(Cl)cc2)c1C1CCN(C(=O)OC(C)(C)C)CC1 (stereo not given)	.	-0.2	0.2%	.	-20	.
N#Cc1cnc(SCC(=O)Nc2ccccc2C(F)(F)F)nc1N	-6	1.1	1.2%[38.3 µM]	-0.3	16	-7
COc1cccc(-c2cc(CNC(=O)[C@H]3O[C@@H](n4cnc5c(N)ncnc54)[C@H](O)[C@@H]3O)no2)c1	6	-0.4	0.6%	2.1	5	0
O=C(CNC(=O)c1cccs1)OCC(=O)c1ccc2ccccc2c1	4	1.7	-1.1%	-4.9	14	-23
COc1ccc(NC(=O)Nc2c(C)n(C)n(-c3ccccc3)c2=O)c(OC)c1	0	-0.1	-0.3%	-3.7	3	4
CC(/C=C/c1ccccc1)=N/NC(=O)c1cc([N+](=O)[O-])cc([N+](=O)[O-])c1	13	0.2	8.1%	-1.2	-13	10
COc1ccc(C(=O)NC2CCCc3c2cnn3-c2cccc(C)c2C)o1 (stereo not given)	1	0.9	0.7%	3.6	17	-12
CCN(CC)CCCN(C(=O)c1ccccc1F)c1nc(-c2ccc(OC)cc2)cs1	-26	-0.3	-0.9%	-0.8	-6	-22
COc1cc([N+](=O)[O-])c2nc(C=NNC(N)=S)ccc2c1	-6	-0.3	4.2%	2.3	-4	9
CSc1ccccc1OCc1cc(C(=O)N(C)Cc2cc(C)[nH]n2)no1	-6	0.0	0.5%	0.7	-14	-1
COc1ccccc1/C=C/C(=O)NCC(=O)N/N=C/c1ccccc1[N+](=O)[O-]	-1	2.8	3.7%	-2.7	-24	-20
CCOc1cc2sc(N3CCC(C(=O)NCCCN4CCCC4=O)CC3)nc2cc1Br	2	0.6	1.7%	-2.9	-8	-13
O=C(CSc1nc(=O)n2ccccc2n1)Nc1ccc2c(c1)OCO2	-10	-0.7	-0.4%	-2.7	5	2
O=[N+]([O-])c1ccc(/C=N/n2cnc3ccccc32)s1	2	0.3	-0.7%	?	0	64*
COC(=O)[C@@]1(Cc2ccc(F)cc2)[C@H]2c3cc(C(=O)N4CCCC4)n(Cc4ccc(Cl)c(C(F)(F)F)c4)c3C[C@H]2CN1C(=O)c1ccccc1	-21	-0.7	2.0%	.	.	.
COc1ccccc1NC(=O)C1=C(C)Nc2ncnn2C1c1ccccc1C(=O)O (stereo not given)	.	-0.6	0.1%	.	14	.
CCOc1cc2c(cc1OCC)C(c1ccccc1)N(c1ccc(C(=O)O)cc1)C(=O)C2 (stereo not given)	-4	0.2	-0.6%	-4.4	-6	-3
C/C(=N\NC(=O)CSc1nc(C)[nH]c1[N+](=O)[O-])c1ccc(F)cc1	-17	1.6	0.9%	-5.3	17	-9
O=C(CSc1ccc(Cl)cc1)NC1CC1	11	-1.0	0.5%	-3.0	5	-8
CCN1/C(=C/c2cc[n+](CCCS(=O)(=O)[O-])c3ccccc23)Sc2ccccc21	0	-0.2	-0.3%	-7.5	17	-9
CCOc1cccc(CN2CCCC(N3CCc4cc(OC)c(OC)cc4C3)C2)c1O (stereo not given)	-21	-0.1	-0.8%	-3.9	0	-4
CCOc1ccccc1-n1nnnc1SCC(=O)N(C)C1CCS(=O)(=O)C1 (stereo not given)	-6	-0.9	-0.4%	-1.9	6	-11
O=C(Nc1cccc(C(=O)N2CCN(c3ccccc3)CC2)c1)c1ccco1	5	0.5	1.0%	-3.2	9	-10
CN(C)CCNc1nc(Oc2ccccc2)c2sccc2n1	-3	-0.7	-0.4%	-3.2	9	-8

Pulled by compound from the list above, three records:
SMILES	Six1-Eya2 inh	TRPML1 agonist	PINK1 expr mod	D2 ag	TRPML1 blocker	D2 potentiator
CCOC(=O)c1cc(-c2ccccc2)n(CC(=O)NCc2ccccc2OC)c1C	.	2.2	12%	.	-22	.
Cc1ncc([N+](=O)[O-])n1CC(=O)NCCc1ccccc1	4	3.2	-1.0%	-4.8	35	-5
CC(C)N(C(=O)[C@H]1C[C@H](CC(=O)NCCCN(C)C)C(=O)N2CCc3c([nH]c4cc(-c5ccco5)ccc34)[C@]12C)C(C)C	-14	0.5	-1.9%	2.1	-6	-6

From PubChem
